CapD inh – Bacillus anthracis CapD inhibitors, primary screen, biochemical, fluorescence intensity; CapD gamma-glutamyltranspeptidase (Bacillus anthracis Ames Ancestor); purified CapD enzyme, fluorescence intensity read-out; stronger effect = lower value; some hits fall short of the stated cut; z-score (no concentration beside the values); 140,000 tested, 0.23% active; AID 492967, 2010;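 active = z-score under -4 in either of two replicates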;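 also: stock transfer was 100 nL into about 40 µL; score is relative to mean and spread of the plate; one replicate is shown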
AID504770 – growth inhibition of E. coli YBA685, primary screen, V. cholerae RctB inhibitors | E. coli YBA685 rctB-dependent plasmid, OD600 growth, 3 h; stronger effect = lower value | z-score (no concentration beside the values) | 130,000 tested, 0.27% active;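 active = z-score under -2 on both plates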;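 also: wells of about 30 µL received 100 nL stock; score is relative to mean and SD of the test wells; the first replicate is given; strong numbers were not always called active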
* = called active by the depositor; / = no result given.

SMILES | CapD inh | AID504770
CC(C)c1ccc(C2Nc3ccccc3S(=O)(=O)N2Cc2ccccc2)cc1 (centres undefined) | 0.69 | 0.75
COc1cccc(C2C3=C(CCCC3=O)NC3=C2C(=O)CCC3)c1 | 43 | -0.55
COc1ccc(N2C(=O)C=CC2=O)cc1OC | -1.3 | -0.55
Nc1cnn(C2CCCO2)c(=O)n1 (centres undefined) | / | -0.55
O=C(O)c1ccccc1Sc1ccccc1S(=O)(=O)NC12CC3CC(CC(C3)C1)C2 | -0.07 | -0.15
CC(C)(C)OC(=O)NCCCCCNS(=O)(=O)c1cccc2nonc12 | -0.6 | /
CC1CNc2ccccc2N=C1N1CCOCC1 (centres undefined) | 0.44 | -0.4
COc1cc(OC)c(C(=O)NCC2CCCO2)cc1OC (centres undefined) | 2 | 2.1
CCOC(=O)CSc1sc(C(=O)OCC)c2c1S(=O)(=O)N(C)c1ccccc1-2 | 0.6 | -0.05
Cc1ccc(C)c(NC(=O)C(OC(=O)c2ccco2)c2ccccc2)c1 (centres undefined) | / | 0.9
NC(N)=NN=C1c2ccccc2-c2ccccc21 | / | -1.4
O=c1c2cc(Br)ccc2nc(-c2ccc(Cl)cc2)n1O | 0.38 | /
Cc1cc(-c2ccc(C(C)C)c(S(=O)(=O)N3CCOc4ccccc43)c2)on1 | 0.12 | -0.15
CC(=O)Nc1ccc(Nc2ncnc3c2c(-c2ccccc2)cn3-c2cccc(C)c2)cc1 | 0.48 | 2
COc1ccc(CC(=O)Nc2ccc(-c3noc(-c4ccc(Cl)cc4)n3)cc2)cc1 | 0.26 | -0.75
Cc1cccc(-n2c(CNC(=O)c3ccc(S(=O)(=O)N(C)C)cc3)nnc2SCC(=O)Nc2nccs2)c1 | 0.18 | /
Cc1cc2c(cc(C(=O)OC(C(=O)NC3CCCC3)c3ccccc3F)n2C)o1 (centres undefined) | / | -0.45
COC(=O)C1=CN(Cc2ccc(F)cc2)C=C(C(=O)OC)C1c1cc(Br)ccc1OC | 14 | /
O=C(CSc1nnc(-c2ccc(Br)cc2)n1-c1ccccc1)N/N=C/c1ccco1 | 0.17 | 2.9
O=C1NC(=S)N(c2cccc(Cl)c2Cl)C(=O)/C1=C/c1ccc(N2CCCC2)o1 | 0.55 | /
O=C(CCCN1C(=O)c2ccccc2C1=O)N1CCCCC1 | / | -0.2
CC(NC(=O)c1cccs1)C(c1cccs1)N1CCN(c2ccccc2)CC1 (centres undefined) | / | 1
CC1=NN(c2ccc(S(N)(=O)=O)cc2)C(=O)/C1=C\c1ccc(-c2ccc(C(=O)O)cc2)o1 | 1.6 | /
Cn1cc(SCC(=O)O)c2ccccc21 | -0.035 | -0.6
N#Cc1ccc(OCC(=O)Nc2cc(C(F)(F)F)ccc2-n2cncn2)cc1 | / | 0.35
O=C(O)CC(Cn1[nH]nnc1=S)c1ccccc1 (centres undefined) | / | -0.9
O=C1/C(=N/OCc2c(Cl)cccc2Cl)c2ccccc2N1c1ccccc1 | -0.12 | /
O=C(O)C(F)(F)C12OC3C4C5CC(C6C5C3C61)C42 (centres undefined) | / | 0.05
Cc1[nH]c(=S)c(C#N)c(C)c1CCC#N | -0.76 | -0.75
COc1cc(C(C#N)N2CCCCCC2)ccc1O (centres undefined) | -1.2 | -1.2
O=c1[nH]c(N2CCN(Cc3ccccc3)CC2)nc(O)c1Cc1ccccc1 | -0.35 | -0.55
Clc1ccc(C=NCc2ccc(-c3cccs3)s2)cc1 | 2.4 | -0.6
O=C(/C=C/c1ccc(S(=O)(=O)NCc2ccco2)cc1)NCC(F)(F)F | / | -1.1
O=S(=O)(/N=C(/c1ccccc1)N1CCCCC1)c1ccccc1 | / | -0.3
O=c1cccc2n1CC1CC2CN(CC(O)COc2ccccc2)C1 (centres undefined) | 1.9 | -0.3
c1ccc2c(c1)NC(c1c[nH]c3ccccc13)N2 | 69 | -0.9
O=C(NCc1cccnc1)c1cnn(-c2cccc(F)c2)c1C1CCNCC1 | -0.3 | -0.15
CS(=O)(=O)Cc1ccc(C(=O)N2CCCC2c2cccs2)cc1 (centres undefined) | / | -0.4
CN1CCC(Nc2ccc3c(c2)CCN3S(C)(=O)=O)CC1 | 1.4 | /
CN(C)C(/C=C/Nc1ccc(I)cc1)=C(C#N)C#N | -1.8 | /
COc1ccc([N+](=O)[O-])cc1C1N(c2ccc(C)cc2)CCN1c1ccc(C)cc1 | 6.1 | /
CC(NC(=O)Nc1ncccn1)(C(F)(F)F)C(F)(F)F | -0.88 | -0.4
CCc1ccc(NC(=O)C2Cc3ccccc3C(=O)O2)cc1 (centres undefined) | -0.18 | 0.15
Cc1c(C(=O)O)oc2c1-c1nn(Cc3cccc(Cl)c3)cc1CC2 | 7 | 0.6
COC(=O)c1c(C)oc2ccc(OCc3ccccc3)cc12 | -0.71 | 0.1
O=C(NC1CC1)C1CCCN(C(=O)NC2CCCCC2)C1 (centres undefined) | / | -0.45
CN(C)c1nc2n(c(=O)n1)CCN2C(=S)S | -0.22 | -1.2
CC(=O)Nc1ccc(NC(=O)OCC2C3CCC(C3)C2C)cc1 (centres undefined) | 0.51 | /
COc1ccc(OC)c(NC(=O)CSc2nc(NCc3ccccc3)c3ccccc3n2)c1 | 0.49 | /
COC(=O)c1cc2c(s1)-c1cc(Cl)ccc1SC2 | 1.2 | 0.7

Next structures follow:
SMILES | CapD inh | AID504770
O=C1C2C3C=CC(C2C(=O)N1c1ccc(O)cc1)C1C2C(=O)N(c4ccc(O)cc4)C(=O)C2C31 (centres undefined) | -0.19 | /
O=C(NC1CCCCC1)C1(c2ccccc2)CCOCC1 | 0.48 | /
Cc1ccc2nc(-c3cc4ccccc4oc3=N)[nH]c2c1 | 0.26 | -0.05
CC12CN3CC(C)(CN(C1)C3c1ccc(O)cc1)C2 (centres undefined) | -0.23 | 0.9
Cc1cc(C)n(C(=O)CSc2nc(C)c(C)cc2C#N)n1 | 0.15 | -0.65
N#Cc1c(-c2ccc(Br)cc2)c(C#N)c2nc3ccccc3n2c1N | -0.32 | /
CCCCCCc1cc2c3c(c(=O)oc2cc1OCC(=O)C(C)(C)C)CCCC3 | 11 | /
O=C(NCc1ccc(Cl)cc1)c1nn2c(c1Br)NC(c1cccs1)CC2C(F)(F)F (centres undefined) | -0.08 | /
COc1ccc2c(CSc3nncn3-c3ccccc3OC)cc(=O)oc2c1 | / | -0.25
CCOC(=O)C(Cc1ccc(C(=O)OC)cc1)(NC(C)=O)C(=O)OCC | 0.33 | /

Sorted by count of non-hydrogen atoms (highest first): some entries from above
SMILES | CapD inh | AID504770
O=C1C2C3C=CC(C2C(=O)N1c1ccc(O)cc1)C1C2C(=O)N(c4ccc(O)cc4)C(=O)C2C31 (centres undefined) | -0.19 | /
O=C(NCc1ccc(Cl)cc1)c1nn2c(c1Br)NC(c1cccs1)CC2C(F)(F)F (centres undefined) | -0.08 | /
CCCCCCc1cc2c3c(c(=O)oc2cc1OCC(=O)C(C)(C)C)CCCC3 | 11 | /
CCOC(=O)C(Cc1ccc(C(=O)OC)cc1)(NC(C)=O)C(=O)OCC | 0.33 | /
N#Cc1c(-c2ccc(Br)cc2)c(C#N)c2nc3ccccc3n2c1N | -0.32 | /
O=C(NC1CCCCC1)C1(c2ccccc2)CCOCC1 | 0.48 | /
CC12CN3CC(C)(CN(C1)C3c1ccc(O)cc1)C2 (centres undefined) | -0.23 | 0.9

New compounds follow.
SMILES | CapD inh | AID504770
S=c1oc2ccc(Cl)cc2n1CN1CCCC1 | / | 0.7
COc1cc2c(cc1OC)C(CC(C)C)=NCC2 | 98 | 0.1
COc1ccccc1C(=O)N(C)CCc1ccccn1 | / | -1.3
COc1ccc(-c2nnc(SCC#N)n2C2CCCCC2)cc1OC | / | -0.8
COC(=O)c1cc2cccc3c2n1CCS3 | 94 | -0.45
O=C(/C=C/c1ccco1)NNC(=O)OCCCN1C(=O)c2ccccc2C1=O | -0.2 | /
C=CCNc1nc(C)nc(OC)n1 | -0.095 | 0.15
C=CCOc1ccc(CN2CCN(S(=O)(=O)c3ccc(Br)cc3)CC2)cc1 | 0.34 | /
CCOC(=O)c1sc2nc(SCc3cc(=O)n4cc(Cl)ccc4n3)n(CC3CCCO3)c(=O)c2c1C (centres undefined) | 1.6 | /
CCN(CC)CCNc1ncnc2sc3c(c12)CCCC3 | 0.42 | -0.35
CC(Nc1ccc(Cl)cc1)C(=O)N/N=C/c1cccc(O)c1 (centres undefined) | 0.075 | -0.05
CCn1c(CN(C)C(C)=O)nc2ccccc21 | 0.45 | -1.1
COc1cccc(C2=NN3C(C2)c2cc(Cl)ccc2OC3c2ccc(F)c(F)c2)c1 (centres undefined) | -0.6 | /
COc1ccccc1NC(=O)Cn1c(=O)n2nc(C)nc2c2ccccc21 | 0.055 | 0.4
FC(F)(F)c1ccccc1NCn1nnc2ccccc21 | -0.07 | 0.6
COc1ccccc1NS(=O)(=O)c1ccc2oc(=S)n(CN(C)CCC#N)c2c1 | / | -0.3
COc1ccc2c(C)c(CC(=O)N3CCOCC3)c(=O)oc2c1 | 105 | -0.55
COc1ccccc1NC(=O)N1CCC(c2nc(-c3cccc(C(F)(F)F)c3)no2)CC1 | -0.27 | /
COC(=O)CSc1nc(C)c(Br)c(=O)[nH]1 | 0.23 | -0.3
Cc1ccc(-n2nc(C)c3c(=O)[nH]c(C(F)(F)F)nc32)cc1 | / | -0.05
COc1ccc(C2C3=C(CCCC3=O)N(c3ccccc3)C(=N)/C2=C(/O)c2ccc(C)cc2)cc1 (centres undefined) | -0.065 | /
O=C1c2ccccc2S(=O)(=O)N1CC(O)COc1ccc(Br)cc1 (centres undefined) | -0.2 | /
CCCc1c(C(=O)Nc2ccc(Cl)cc2)cnn1C | 1.1 | 0.3
Cc1cc(C(=O)N2CCc3ccccc3C2)n[nH]1 | 0.06 | -0.65
CC(C(=O)O)n1c(-c2cccs2)n[nH]c1=S (centres undefined) | / | -0.55
COC(=O)C1=C(C(=O)OC)SC2(S1)C(C(=O)OC)=C(C(=O)OC)SC1=C2c2cc(C)ccc2NC1(C)C | 0.15 | /
CCn1cc(C(=O)NC2CCCCC2)c2cc(OC)c(OC)cc2c1=O | 3.9 | -0.05
COc1cnn(-c2cccc(Cl)c2)c(=O)c1Cl | -0.04 | 0.1
N#CC1=C(N)Oc2n[nH]c(-c3ccccn3)c2C12C(=O)Nc1ccccc12 (centres undefined) | -0.55 | /
COC(=O)c1scc(-c2ccccc2)c1S(=O)(=O)N1CCN(c2ccccc2OC)CC1 | -0.16 | 0.2
CCNc1nc(NC(C)C)nc(Oc2ccc(OCC)nn2)n1 | -0.17 | /
COc1cnc(-c2ccccn2)nc1Sc1ccc(Cl)cc1Cl | 0.05 | /
CCN(CC(=O)Nc1ccc2c(c1)OCCO2)C(=O)C1CC1 | / | -0.55
CC1CCN(c2nc(NCc3cccnc3)nc(N3CCOCC3)n2)CC1 | -0.06 | /
CC(=O)NC(=S)Nc1ccc(Cl)cc1 | -0.11 | -0.8
CSc1nc(-c2ccccc2)nc(Sc2ccccc2)c1C#N | -0.96 | -0.65
COC(=O)c1ccc(COC(=O)c2ccccc2Cl)cc1 | 2.6 | -0.65
O=C1c2ccc(-c3nc4cc(Cl)ccc4c(=O)o3)cc2C(=O)N1CC1CCCO1 (centres undefined) | 7.9 | 0.2
COc1ccc(Oc2nc(-c3ccccc3)cc(C(F)(F)F)c2C#N)cc1 | -1.2 | /
O=C1NC(=O)N(c2cccc(Br)c2)C(=O)/C1=C/c1ccc(N2CCCC2)o1 | -0.21 | /
O=C(Nc1scc2c1c(=O)oc1ccccc12)c1cccs1 | 1.3 | -0.65
Fc1cnc(Nc2cccc(Br)c2)nc1Nc1cccc(Br)c1 | -0.84 | 0.5
CC(=O)N1CCN(CC(=O)N2CCc3ccccc3C2)CC1 | / | 1
CCc1ccc2c(c1)c1nc3ccccc3nc1n2C | 0.065 | -1
CCOC(=O)Nc1ccc2c(c1)Nc1ccccc1CC2 | 15 | /
O=C(Nc1cccc2ccccc12)c1ccc(N2C(=O)C3C4C=CC(C4)C3C2=O)cc1 (centres undefined) | -0.58 | /
COc1ccccc1-n1c(-c2ccccc2)cn2c3c(=O)n(C)c(=O)n(C)c3nc12 | 0.025 | -0.85
O=C(CSc1nc2ccccc2s1)c1ccc[nH]1 | / | 0.3
O=C(NCCCN1CCOCC1)c1cc(S(=O)(=O)N2CCOCC2)ccc1Sc1ccc(Br)cc1 | -0.29 | /
CC(C)(C)C#CC(O)(C#CC(C)(C)C)C#CC(C)(C)C | 0.76 | /

The list continues.
SMILES | CapD inh | AID504770
Cc1ccc(CNC(=O)c2ccc(Cn3nc(C)c(Cl)c3C)o2)cc1 | 0.065 | -0.15
O=C1NC(Nc2nc3ccccc3s2)(C(F)(F)F)C(=O)N1C1CCCCC1 (centres undefined) | 0.1 | -0.3
CCOc1ccc(Nc2[nH]c(=O)sc2C2=c3cc(Br)ccc3=NC2=O)cc1 | 0.23 | /
CC(NC(=O)c1ccc(Cl)cc1Cl)C(=O)O (centres undefined) | 0.01 | -1.1
CNS(=O)(=O)c1ccc(C(F)(F)F)cc1S(=O)c1ccccc1C(=O)O (centres undefined) | 0.93 | -0.3

As a short view, 5 of the compounds above.
SMILES | CapD inh | AID504770
O=C(NCCCN1CCOCC1)c1cc(S(=O)(=O)N2CCOCC2)ccc1Sc1ccc(Br)cc1 | -0.29 | /
CC(C)(C)C#CC(O)(C#CC(C)(C)C)C#CC(C)(C)C | 0.76 | /
Cc1ccc(CNC(=O)c2ccc(Cn3nc(C)c(Cl)c3C)o2)cc1 | 0.065 | -0.15
O=C1NC(Nc2nc3ccccc3s2)(C(F)(F)F)C(=O)N1C1CCCCC1 (centres undefined) | 0.1 | -0.3
CCOc1ccc(Nc2[nH]c(=O)sc2C2=c3cc(Br)ccc3=NC2=O)cc1 | 0.23 | /

Source: PubChem (ICCB-Longwood Screening Facility, Harvard Medical School)

A portion of the library; the hit share may differ from the screen's.
